High-throughput results: PubChem BioAssay, NMMLSC
RGS7-Gao reg: regulators of human RGS7-Galphao interaction; binding response (% of control), % at 10 µM; 0.35% of 220,000 active; Multiplexed bead flow cytometry, RGS7-Galphao binding; actives lie on both sides; P09471; AID 1439; in the data active = binding response below about 49% or above about 150%; inconclusive = no clear call, values can overlap the other calls; inactive = in between;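 also: fluorescent Galphao held in activated GDP-AlF4 state binding bead-coupled RGS7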
Target sequence (P09471 whole entry, looked up): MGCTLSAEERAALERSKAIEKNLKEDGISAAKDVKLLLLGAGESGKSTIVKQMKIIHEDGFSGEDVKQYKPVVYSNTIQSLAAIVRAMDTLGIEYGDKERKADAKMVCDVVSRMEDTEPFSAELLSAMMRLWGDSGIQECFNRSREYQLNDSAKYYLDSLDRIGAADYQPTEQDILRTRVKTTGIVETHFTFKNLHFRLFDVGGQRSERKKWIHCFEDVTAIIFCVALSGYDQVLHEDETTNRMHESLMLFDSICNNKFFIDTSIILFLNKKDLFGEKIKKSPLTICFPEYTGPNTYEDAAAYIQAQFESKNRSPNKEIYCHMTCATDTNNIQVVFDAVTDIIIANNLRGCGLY
RGS8-Gao reg: regulators of human RGS8-Galphao interaction; P09471; multiplexed bead flow cytometry, RGS8-Galphao binding; actives lie on both sides; response (percent of control binding), % at 10 µM; 0.34% of 220,000 active; AID 1423; in the data active = response below about 60% or above about 140%; inactive = in between;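 also: Galphao activated as the GDP aluminium fluoride complex binding bead-coupled RGS8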
RGS4-Gao reg: modulates binding of RGS4 to human Galphao | binding response (% of control), % at 10 µM | Multiplexed bead flow cytometry; actives lie on both sides | AID 1415 | 0.33% of 220,000 active; in the data active = binding response below about 49% or above about 150%; inactive = in between;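 also: fluorescent Galphao activated with aluminum fluoride binding bead-coupled RGS4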
Numbers without * were called inactive; ? = inconclusive. The list is partial; count on the stated rates, not on these rows.

SMILES	RGS7-Gao reg	RGS8-Gao reg	RGS4-Gao reg
COc1cccc(C2C(C(=O)Nc3cccnc3)=C(C)Nc3nnnn32)c1OC (stereo not drawn)	98	100	100
CC(C)C(C)(C#N)NC(=O)CSc1nnc(C(F)(F)F)n1C (stereo not drawn)	104	102	105
Cc1cccc(NC2=C(Cl)C(=O)OC2OC(C)C)c1 (stereo not drawn)	99	100	98
CCCCNC(=O)COC(=O)c1cc(F)c(F)cc1Cl	103	98	102
O=C(N/N=C/c1cn(-c2ccccc2)nc1-c1ccc2c(c1)OCCO2)c1ccncc1	104	98	100
Cc1ccc(Nc2ncnc(N)n2)cc1	104	102	104
COc1cccc(C(=O)COc2cccc(NC(=O)c3ccco3)c2)c1	102	106	106
CCc1ccccc1NC(=O)Nc1cc(F)ccc1F	?	99	98
COc1ccccc1NC(=O)c1sc2nc(-c3ccco3)ccc2c1N	96	97	103
CN(C(=O)CCc1ccccc1)c1nnc(-c2ccncc2)s1	106	104	103
CC(C)(C)c1cc(N)n2nc(C(C)(C)C)cc2n1	100	97	97
COc1ccc(-c2nnc(SC)o2)c(OC)c1	?	101	100
Cc1ccc2[nH]c(=O)c(-c3noc(C(C)C)n3)cc2c1	99	99	101
Cc1cc(C)nc(Nc2ncc(O)n2-c2ccc(C)c(Cl)c2)n1	99	100	101
Cc1ccc(Cl)cc1N1CCN(CC(O)COC(C)C)CC1 (stereo not drawn)	?	100	90
Cc1ccc(Nc2nc(N)nc(CCl)n2)cc1	?	100	96
O=C(CC1Sc2ccccc2NC1=O)OCc1cc(=O)oc2cc(O)ccc12 (stereo not drawn)	101	100	101
Cc1no[n+]([O-])c1COc1ccc(/C=N/n2nnnc2N)cc1	101	102	104
CCOC(=O)c1cc(C#N)c(N2CCNCC2)nc1C(F)(F)F	?	102	101
CCOC(=O)c1cc(C#N)c(N2CCCC2)nc1-c1ccccc1	99	98	96
CCNc1nc(CSc2ccccc2)nc2sc(C)c(C)c12	98	95	98
COc1ccccc1NC(=O)C(=O)N(c1cccnc1)C(C(=O)NC(C)(C)C)c1ccccc1 (stereo not drawn)	?	103	103
CCOc1cc(/C=N/NC(=O)CN2CCOCC2)ccc1OCc1ccccc1	103	108	106
O=C(N/N=C/c1ccc2c(c1)OCO2)c1ccc(NS(=O)(=O)c2cccs2)cc1	?	101	102
Cc1ccc(NC(=O)c2cnn(-c3ccccc3)c2NC(=O)c2ccco2)cc1	99	99	97
CCOC(=O)c1cc(C#N)c(Oc2ccccc2)nc1-c1ccccc1	100	104	98
CC(=O)Nc1ccccc1Sc1ccc2c3c(cccc13)C(=O)N(c1ccc(C)cc1)C2=O	89	101	96
COc1cccc(OCC(=O)NNC(=O)c2cccs2)c1	95	103	97
CCOc1ccc(NC(=O)Cn2cncc2-c2ccc([N+](=O)[O-])cc2)cc1	98	104	95
O=C(CC1C(=O)NCCN1Cc1c(F)cccc1Cl)NCCC1=CCCCC1 (stereo not drawn)	96	99	100
CC(=O)CSc1nnc(C(F)(F)F)n1C	?	98	96
O=C(COc1ccc(/C=N/NC(=O)c2ccccc2O)cc1)Nc1ccc([N+](=O)[O-])cc1	99	102	98
CC(C)c1nc(N2CCN(C(=O)c3ccco3)CC2)c2c3c(sc2n1)CCCC3	98	103	101
CC(=O)N(CCC(c1ccco1)C(C)C)Cc1ccc(OC(C)C)cc1 (stereo not drawn)	?	99	99
CCc1cc2c(NCCO)ncnc2s1	101	102	97
Cc1sc2nc(CSc3ccccc3)nc(N3CCN(C)CC3)c2c1C	101	101	101
CCOC(=O)Cc1csc(SCc2cc(=O)oc3cc(O)ccc23)n1	100	101	100
CN1C(=O)NC(c2ccccc2)C2=C1CN(c1ccc3ccccc3c1)C2=O (stereo not drawn)	105	104	100
Cn1c(SCC(=O)NC2CC2)nnc1C(F)(F)F	96	100	100
CC(=O)c1ccc(OCc2cc(=O)n3ccsc3n2)cc1	97	102	91
CC1=C(C(=O)Nc2cc(C)ccn2)C(c2ccc(C)cc2)C2=C(CCCC2=O)N1 (stereo not drawn)	104	100	99
CCCCNc1nc(-c2ccccc2)c(C(=O)OCC)cc1C#N	95	100	100
C=CCn1c(CCNC(=O)c2ccccc2F)nnc1SCC(=O)Nc1ccc(OC)cc1	95	102	100
CCOC(=O)c1cc2sccc2n1CC(=O)N1CCN(C(=O)c2ccco2)CC1	96	101	100
COc1ccc(S(=O)(=O)N(CCCN2CCOCC2)Cc2cccc(OC)c2OC)cc1	98	100	101
Cc1c(/C=N/NC(=O)CNc2ccccc2)c2ccccn2c1C(=O)c1ccccc1	98	101	99
Fc1ccc2nc(Nc3nc4cc5c(cc4s3)OCO5)sc2c1	107	108	104
Cn1c(N/N=C2\CCCc3ccccc32)nc2c1c(=O)n(Cc1ccc(F)cc1)c(=O)n2C	103	102	100
CCOC(=O)c1cc(C#N)c(Oc2cccc(C(F)(F)F)c2)nc1-c1ccccc1	93	98	95
COc1ccc(/C=C/c2nc(N)nc(-c3ccccc3O)n2)cc1	100	100	97
Other records:
SMILES	RGS7-Gao reg	RGS8-Gao reg	RGS4-Gao reg
CCOC(=O)/C(C#N)=C/c1ccc(OCC(=O)Nc2ccc(C)c(C)c2)c(OC)c1	98	103	96
COc1ccc(CCNC(=O)CSc2nc3[nH]ncc3c(=O)n2-c2ccc(C)c(Cl)c2)cc1OC	102	106	105
Cc1ccc(Cc2cnc(NC(=O)/C(C#N)=C/c3ccc(-c4ccc([N+](=O)[O-])cc4)o3)s2)cc1	112	106	108
Cc1cc(CSc2ccccc2)ccc1NC(=O)c1ccc(Cl)c([N+](=O)[O-])c1	99	100	103
Cc1cccc(Nc2ncnc(N)n2)c1	104	100	98
COCCn1c(-c2ccco2)nc2nc3ccccc3nc21	95	99	95
Cc1ccc(CNC(=O)CCC2CCCN(Cc3cccc4cccnc34)C2)o1 (stereo not drawn)	108	106	105
O=c1ccn(Cc2ccc(F)cc2)c2ccnc(C(F)(F)F)c12	91	82	81
C/C(=N\NC(=O)c1ccc(NS(=O)(=O)c2cccs2)cc1)c1ccc(C(C)(C)C)cc1	106	101	101
COc1ccc(NC(=O)c2sc(N)nc2-c2ccccc2)cc1	97	98	98
O=S(=O)(c1ccccc1)N1CCn2c(nc3ccccc32)C1	105	119	101
COc1ccccc1CCNC(=O)c1cc(-c2ccncc2)nc2ccc(Br)cc12	97	101	100
CC(C)Nc1ncnc2c1cnn2-c1ccc(Cl)cc1	97	100	103
Cc1c(C(=O)Nc2ccc(Cl)cc2)c2ccccn2c1C(=O)c1ccccc1	98	99	102
O=C(Nc1nc(-c2ccc(-c3ccccc3)cc2)cs1)C1=COCCO1	103	101	102
CC1(C)CC(/C=C/c2ccccc2)=Nc2ccccc2N1	?	103	105
CCn1c(Cc2ccccc2)nnc1SCC(=O)Nc1ccc(S(N)(=O)=O)cc1	100	100	96
CCCCn1c(N)c(-c2nc3ccccc3o2)c2c([N+](=O)[O-])nn(CC)c(=O)c21	104	106	97
Cc1c(C=O)c2ccccn2c1C(=O)c1cccs1	?	102	104
COc1cc([N+](=O)[O-])ccc1-c1ccc(/C=N/NC(=O)c2ccccc2O)o1	?	102	105
Cc1ccc(-n2nc(C(=O)NCc3ccc(C)o3)c3c4ccccc4n(C)c3c2=O)cc1	101	99	95
Fc1ccc2nc(Nc3nc4c(F)cc(F)cc4s3)sc2c1	102	98	102
CCCCNC(=O)N1CCN(Cc2ccc(F)cc2)CC1	98	103	103
COc1cccc(N/C(SCc2cccc([N+](=O)[O-])c2)=C(/C#N)C(=O)NCc2cccs2)c1	95	87	98
CN1C(=S)N(c2ccccc2)C(=O)/C1=C/c1cccs1	106	105	108
CC(C)(C)NC(=O)COC(=O)c1ccc(F)cc1Cl	103	103	104
CCOC(=O)C1CCN(Cc2ccc(OC)c(C)c2OC)CC1	101	99	101
COc1cc(NC(=O)c2csc(-c3ccncc3)n2)cc(C(=O)Nc2cccc(C(F)(F)F)c2)c1	?	101	100
COc1ccc(-c2cc(-c3nnc(-c4ccncc4)o3)c3ccccc3n2)cc1	101	100	100
CCN(CC)S(=O)(=O)c1ccc(NC2c3ncccc3C(=O)N2Cc2ccccc2)cc1 (stereo not drawn)	105	100	99

In a second layout: entries from further up.
Results follow in this order: RGS7-Gao reg | RGS8-Gao reg | RGS4-Gao reg
> COc1ccccc1CCNC(=O)c1cc(-c2ccncc2)nc2ccc(Br)cc12
→ 97 | 101 | 100
> CC(C)Nc1ncnc2c1cnn2-c1ccc(Cl)cc1
→ 97 | 100 | 103
> Cc1c(C(=O)Nc2ccc(Cl)cc2)c2ccccn2c1C(=O)c1ccccc1
→ 98 | 99 | 102
> O=C(Nc1nc(-c2ccc(-c3ccccc3)cc2)cs1)C1=COCCO1
→ 103 | 101 | 102
> CC1(C)CC(/C=C/c2ccccc2)=Nc2ccccc2N1
→ ? | 103 | 105
> CCn1c(Cc2ccccc2)nnc1SCC(=O)Nc1ccc(S(N)(=O)=O)cc1
→ 100 | 100 | 96
> CCCCn1c(N)c(-c2nc3ccccc3o2)c2c([N+](=O)[O-])nn(CC)c(=O)c21
→ 104 | 106 | 97
> Cc1c(C=O)c2ccccn2c1C(=O)c1cccs1
→ ? | 102 | 104
> COc1cc([N+](=O)[O-])ccc1-c1ccc(/C=N/NC(=O)c2ccccc2O)o1
→ ? | 102 | 105
> Cc1ccc(-n2nc(C(=O)NCc3ccc(C)o3)c3c4ccccc4n(C)c3c2=O)cc1
→ 101 | 99 | 95
> Fc1ccc2nc(Nc3nc4c(F)cc(F)cc4s3)sc2c1
→ 102 | 98 | 102
> CCCCNC(=O)N1CCN(Cc2ccc(F)cc2)CC1
→ 98 | 103 | 103
> COc1cccc(N/C(SCc2cccc([N+](=O)[O-])c2)=C(/C#N)C(=O)NCc2cccs2)c1
→ 95 | 87 | 98
> CN1C(=S)N(c2ccccc2)C(=O)/C1=C/c1cccs1
→ 106 | 105 | 108
> CC(C)(C)NC(=O)COC(=O)c1ccc(F)cc1Cl
→ 103 | 103 | 104
> CCOC(=O)C1CCN(Cc2ccc(OC)c(C)c2OC)CC1
→ 101 | 99 | 101

Next section:
SMILES	RGS7-Gao reg	RGS8-Gao reg	RGS4-Gao reg
O=C(c1ccccc1)N1CCN(Cc2ccccc2)CC1	103	100	108
C/C(CC(=O)NCC(C)C)=N\NC(=O)COc1cc(C)c(Br)cc1Br	99	99	100
NC(=O)C(c1ccc(Cl)cc1)c1ccc(Sc2ccc(Cl)cc2)nn1 (stereo not drawn)	100	98	101
Cc1nn(C)c(C)c1NC(=O)CSc1nc(C2CC2)nc2c1cnn2-c1ccccc1	95	101	97
CCN1C(=O)/C(=C/c2ccc(C)o2)N(C)C1=S	100	97	99
CCOc1cc(/C=C2/NC(=S)NC2=O)ccc1OCc1ccc([N+](=O)[O-])cc1	93	103	79
COc1ccc(/C=C/C(=O)NC(=S)N2CCN(c3ccccn3)CC2)cc1	?	96	89
COc1cc2nc(CN3CCN(C(C)=O)CC3)[nH]c(=O)c2cc1OC	?	98	99
Nc1nc(CSc2n[nH]c(-c3ccccc3)n2)nc(Nc2ccccc2)n1	99	100	102
CCOC(=O)C1=NN(c2ccc(OC)cc2)C2C(=O)N(c3ccccc3OC)C(=O)C12 (stereo not drawn)	?	101	98
N#Cc1cccc(NC(=O)CCC2CCCC2)c1	100	94	97
CCC(=O)c1ccccc1OCCN1CCN(Cc2ccccc2)CC1	102	99	99
O=C(CSc1nc(O)cc(=O)[nH]1)C1CC1	104	101	99
COc1cc(C)c(NC(=S)Nc2cccc(Cl)c2)cc1OC	108	124	110
CCOC(=O)c1c(-c2ccccc2)nnn1-c1nc(OC)nc(N2CCOCC2)n1	101	93	102
Cc1ccc(-c2ccc(/C=N\NC(=O)c3cc4c(ccc5ccccc54)o3)o2)cc1[N+](=O)[O-]	93	104	99
C=CCn1c(Cc2csc(N)n2)nnc1SCC(=O)Nc1ccccc1C(F)(F)F	97	100	100
Nc1c(-c2ccccc2)cnn1C1CCS(=O)(=O)C1 (stereo not drawn)	96	101	98
CN(Cc1ccco1)C(=O)Cn1nc(-c2ccc(Cl)cc2)ccc1=O	99	99	100
O=C(O)CCCCCCCCCC(=O)c1cccs1	110	118	111
COCCOc1cc(N)c(Cl)cc1Cl	96	100	94
O=C(O)CN1C(=O)SC(Nc2ccc(Cl)cc2)C1=O (stereo not drawn)	113	108	110
CC1(C)C2CCC1(C)C(NC(=O)/C=C/c1ccccc1)C2 (stereo not drawn)	101	104	100
O=C1C=C(NCc2ccccc2)CCC1	102	104	102
CCCc1nc(SCC(=O)N2CCc3ccccc3C2)c2ccccc2n1	96	89	79
CCc1cc2c(NC3CCCC3)ncnc2s1	102	103	96
COC(=O)CCN(C(=O)C1C2CC3CC(C2)CC1C3)c1ccccn1 (stereo not drawn)	111	98	100
CC1(OC(=O)CCc2ccccc2)C(=O)C=C2C=C3CCCN3C=C2C1=O (stereo not drawn)	?	96	97
Cc1ccc(Nc2nc(N)nc(CSCCO)n2)cc1	107	127	104
O=[N+]([O-])c1ccc(-c2ccc(/C=N/c3c(-c4ccco4)nc4ccccn34)o2)cc1	95	97	103
COc1ccc(Cn2c(N)c(C#N)c3nc4ccccc4nc32)cc1OC	100	99	101
COc1ccc2[nH]c(C)c(C(=O)CN3CCOCC3)c2c1	95	100	95
COC(=O)CCC(=O)OC1(C)C(=O)C=C2C=C(C3CC3)N(c3ccccc3)C=C2C1=O (stereo not drawn)	?	97	98
COC(=O)c1cc(=O)nc2sc3cc(OC)ccc3n12	103	99	100
